From PubChem
VDR inhibitor – Inhibitors of the vitamin D receptor (VDR): qHTS | Vitamin D3 receptor (Homo sapiens), P11473 | VDR-SRC2-3 peptide fluorescence polarization, 2 h | Potency, µM, for the others: max response, negative = inhibition, usual class: inhibitors | 400,000 tested, 0.93% active; active = well fitted inhibition curve with a large enough effect; inconclusive = small, poorly fitted or top-dose-only effect, or another doubt; inactive = no such curve, though single readings can be large or run the other way; also: series mostly up to about 120 µM
Target sequence (P11473 whole entry, looked up): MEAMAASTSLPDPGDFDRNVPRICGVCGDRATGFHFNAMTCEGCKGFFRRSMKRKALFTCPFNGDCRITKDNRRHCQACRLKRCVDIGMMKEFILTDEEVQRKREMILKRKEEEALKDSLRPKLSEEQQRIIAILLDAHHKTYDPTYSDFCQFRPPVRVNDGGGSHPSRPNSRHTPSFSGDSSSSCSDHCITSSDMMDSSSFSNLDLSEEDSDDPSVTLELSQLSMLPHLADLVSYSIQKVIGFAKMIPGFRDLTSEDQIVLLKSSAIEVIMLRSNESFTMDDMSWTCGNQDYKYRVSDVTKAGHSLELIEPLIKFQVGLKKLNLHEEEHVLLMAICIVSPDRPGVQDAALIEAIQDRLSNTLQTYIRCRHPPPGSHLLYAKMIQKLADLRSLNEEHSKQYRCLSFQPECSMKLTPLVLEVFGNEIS
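After 23 nl compound addition and a short centrifugation, plates sat for 2 hours at ambient temperature; polarization of fluorescence then indicated loss of VDR binding to peptide SRC2-3.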
Active calls of the source: *; u = inconclusive; & = joins results of further samples. % is scaled to controls: 0 for no effect and ±100 for the full control effect; potency is read from the fitted curve at half-maximal effect. These rows are one share of the data (hit frequency here may not be typical).

Compound	VDR inhibitor
CN(C)C(=O)CCC(=O)N1CCCC(C(=O)c2ccc3c4c(cccc24)CC3)C1 (stereo not drawn)	3%
CC1CCC(NC(=O)COC(=O)CSc2ccc(C(N)=O)cc2[N+](=O)[O-])CC1 (stereo not drawn)	-2%
N/C(Cc1ccc(Cl)cc1Cl)=N\OC(=O)c1ccc(Br)o1	-6%
CCOC(=O)C(C)(C)n1nnc(-c2ccc([N+](=O)[O-])cc2)n1	u
O=C(CSc1ncnc2c1cnn2-c1ccc(F)cc1)NCc1ccc2c(c1)OCO2	-15%
O=c1nccc(N/N=C/c2cccc(O)c2)[nH]1	0%
CCC(=O)NC(=S)Nc1ccc(NC(=O)c2ccco2)c(Cl)c1	6%
Cc1ccc(-c2nn3c(C)nnc3c3ccccc23)cc1S(=O)(=O)NC(C)(C)CO	2%&-18%
COc1ccc2c(C(=O)CN3CCN(CCO)CC3)c[nH]c2c1	2%
CC(=O)Nc1nc(C)c(CCC2OCCO2)c(=O)[nH]1	-10%
O=C1CSC(=S)N1N=Cc1cccc2ccccc12	-21%
COc1ccc(NC(=O)C2CCC(CNc3c(N4CCCCC4)c(=O)c3=O)CC2)cc1OC (stereo not drawn)	10%&-8%
O=C(CC1Sc2ccccc2NC1=O)Nc1cccc(C(F)(F)F)c1 (stereo not drawn)	-3%
O=C(NNC(=O)c1cccs1)c1ccco1	-2%
O=C(CN1c2ccccc2Sc2ccccc21)NNC(=S)Nc1ccc(Cl)cc1	2%
CCCCNC(=O)OC(C)CNC(=O)OC (stereo not drawn)	5%
CCCCN(C(=O)c1cc(S(=O)(=O)N2CCCCCC2)ccc1OC)c1c(N)n(CCC)c(=O)[nH]c1=O	-2%
Cc1ccc(OCCCn2c(=O)sc3ccccc32)cc1	-5%
O=C(Oc1ccccc1F)c1nc(SCc2ccc(F)cc2)ncc1Cl	6%
CCOC(=O)N1CCC(NC(=O)C2CCCN(Cc3nc(-c4cccc(C)c4)oc3C)C2)CC1 (stereo not drawn)	-9%
Cc1cc(=O)oc2cc(OC(C)C)ccc12	-11%
O=c1c2sc3nc(N4CCOCC4)c4c(c3c2ncn1C(c1ccccc1)c1ccccc1)CCCC4	-13%
O=C(Nc1ccc2c(c1)OCCO2)C1CCCC1	-14%
Cn1c(=O)c2c(nc(N3CCN(C(=O)c4ccco4)CC3)n2CCSc2ncccn2)n(C)c1=O	-6%
CN(C)CCCNC(=O)/C=C/c1ccc2c(c1)OCO2	-14%
COc1cccc2c1cc1c(=O)n(CC(=O)N3CCN(c4cccc(C)c4C)CC3)nc(C)n12	-9%&1%
COc1ccc(C(CNC(=O)CNC(=O)c2ccccc2Cl)N2CCCC2)cc1 (stereo not drawn)	2%
CC(NC(=O)c1cc(S(=O)(=O)N2CCOCC2)ccc1F)c1ccc(-n2ccnc2)cc1 (stereo not drawn)	0%
Cc1cccc(C(=O)N2CCN(c3ccc(N4CCOCC4)nn3)CC2)c1	4%
O=C(C[n+]1cc(-c2ccc(Cl)cc2)n2c1CCC2)Nc1nc(-c2ccccc2)cs1	-7%
Cn1c(=O)n(CC(N)=O)c(=O)c2c1nc1n2CCCN1Cc1ccccc1	-19%
O=C(COC(=O)C1CCN(c2ccc(C(F)(F)F)cn2)CC1)Nc1ccc(Cl)cc1	-17%
CSc1n[nH]c(-c2sccc2OCc2ccc(C)cc2)n1	2%
CCNC(=S)N(CCc1c(C)[nH]c2ccc(Cl)cc12)Cc1cccnc1	-6%
COc1cccc(C(C#N)N2CCOCC2)c1 (stereo not drawn)	-8%
Cc1cc[n+](-c2[nH]c(=O)sc2/C=N/NC(=O)c2ccccc2[O-])cc1C	-3%
CCOc1ccc2[nH]cc(S(=O)(=O)c3ccc(C)cc3)c(=O)c2c1	-5%
Cc1ccc2oc(C(Cl)(Cl)Cl)cc(=O)c2c1	-3%
Cc1occc1-c1nnc(SCC(=O)NC(C)(C)C)n1CC(C)C	-4%
Cc1nnc(SCC(=O)NC2CCCCCC2)n1C	2%
Cc1ccc(N2CSC3=C(C#N)C(c4cccs4)CC(=O)N3C2)cc1 (stereo not drawn)	79µM*
CCc1ccc2[nH]c(=O)c(CN(CCO)C(=O)NCc3ccccc3)cc2c1	-5%
O=C(/C=C/c1ccccc1)Nc1ccc(N2CCCCC2)cc1	1%
CC1Cc2cc(S(=O)(=O)N3CCC(C(=O)Nc4ccccn4)CC3)ccc2N1C(=O)C1CCC1 (stereo not drawn)	-12%
Cc1ccc(S(=O)(=O)NNC(=O)C(=O)NNS(=O)(=O)c2ccc(C)cc2)cc1	-10%
O=C1CCCN2N=C(SCC(=O)Nc3ccc(Cl)cc3)SC2=N1	-5%
Cc1nc(NC(=O)CSc2nnc(-c3ccccc3)c(-c3ccccc3)n2)c(Cl)cc1Cl	2%
COc1ccc(Nc2nc(N)nc(CCl)n2)cc1	-26%
O=C(COC(=O)CCNS(=O)(=O)c1ccc(Cl)cc1)NCc1ccco1	1%
O=C1CCC(=O)N1CC(O)COc1ccccc1 (stereo not drawn)	-4%
Cc1ccc(S(=O)(=O)NCc2ccc(C(=O)N3CCCC3)cc2)cc1	-5%
Cc1ccc(C)c(C(=O)C(C)Sc2nc3nn(-c4ccccc4)c(=O)c-3c3n2CCCCC3)c1 (stereo not drawn)	-5%
COC(=O)C(C)Oc1ccc2c(-c3cccc([N+](=O)[O-])c3)cc(=O)oc2c1 (stereo not drawn)	-2%
COc1ccc(CN(CC(=O)NC(C)C)C(=O)CCC(=O)Nc2nccs2)cc1	-9%
CCN1CCCC1CNC(=O)CCc1nc(-c2ccc(C)cc2)no1 (stereo not drawn)	-10%
N[C@H](Cc1cnc[nH]1)C(=O)O	-16%&7%
CN1CCN(c2ncc3nc(-c4cccs4)c(=O)n(-c4ccccc4)c3n2)CC1	0%
O=C(COc1ccc2ccccc2c1)Nc1ccncc1	10%
COc1ccc(Cl)cc1NC(=O)COC(=O)CCCN1C(=O)c2ccccc2C1=O	-16%
CC(C)NCC(O)c1ccc(NS(C)(=O)=O)cc1 (stereo not drawn)	3%&-13%&3%&6%

(next part)
Compound	VDR inhibitor
COc1ccc(NC(=O)CSc2nc(O)cc(=O)n2-c2ccccc2OC)cc1	7%
Cn1cccc1C(=O)/C(C#N)=C/c1ccc(F)cc1	u
N#CC(=C1CCCC1)c1nc(-c2cc3ccccc3oc2=O)cs1	18%
O=C(O)COc1ccc(NC(=O)c2ccco2)cc1	-19%
COc1ccc(OC)c(CCNC(=O)C2CCN(c3ncnc4c3nc3n4CCCCC3)CC2)c1	5%&2%
CCCCCCOc1ccc(OC(=O)c2cccnc2)cc1	21%
Cc1ccc(-c2csc(NC(=O)C[n+]3cc(-c4ccccc4)n4c3CCC4)n2)cc1	-1%
COc1ccc(-c2ccc(C#N)c(SCC(=O)NCc3ccco3)n2)cc1OC	-4%
COc1ccc(-c2noc(CSc3ccc(C)cc3)n2)cc1	9%
Cc1[nH]c2ccccc2c1C(=O)C(=O)NCCC1=CCCCC1	-14%
CC(C)CCCC(C)CCCC(C)CCCC(C)C(=O)O (stereo not drawn)	u
CCCC(=O)Nc1ccc(C(=O)NNC(=O)c2ccccc2Br)cc1	-7%
COc1ccc(NC(=S)Nc2ccc(OCc3ccccc3)cc2)cc1OC	12%
CCOc1ccc(S(=O)(=O)N2CCN(C(=O)CN3C(=O)NC(C)(C)C3=O)CC2)cc1	9%
O=C(CN1CCN(CCC(=O)Nc2ccccc2F)CC1)Nc1ccc(F)cc1	-21%
Cc1ccccc1NS(=O)(=O)c1cc(C(=O)NCc2ccncc2)ccc1Cl	6%
CCN(CC(=O)Nc1ccc([N+](=O)[O-])cc1OC)c1ccccc1	5%
COc1cc(OC)cc(C(=O)N2CCN(C(=O)c3ccc(OC)c(OC)c3)CC2)c1	-7%
Cc1ccc(/C=C/C(=O)O)cc1S(=O)(=O)N1CCCc2ccccc21	-2%
COc1ccc(C(C(=O)NC2CCCCC2)N(C(=O)c2csnn2)C2CC2)cc1 (stereo not drawn)	0%
CC(=O)Nc1nnc(CCS(=O)(=O)c2ccc(Cl)cc2)s1	3%
CC(C)Oc1ccc(S(=O)(=O)N2CCCCC2)cc1NC(=O)C1CCC1	-4%
Cc1ccc2cccc(NC(=O)c3ccc(-c4ccc(Cl)cc4Cl)o3)c2n1	-4%
CCOC(=O)N1CCN(CC(O)COc2ccc(CC)cc2)CC1 (stereo not drawn)	5%
O=C(c1nc2nc(-c3ccc(Cl)cc3)cc(C(F)(F)F)n2n1)N1CCOCC1	-22%
CCc1cc(C(=O)N2CCN(c3ccccn3)CC2)sc1C	0%
CC(/C=N/NC(=O)c1cccnc1)=C\c1ccco1	-1%
Cc1ccc(C(=O)OCC(=O)Nc2sccc2C(N)=O)cc1NC(=O)c1ccco1	-10%
COc1ccc(N/N=C(\C#N)C(=N)N2CCCCC2)cc1	-1%
CC(=O)Nc1c(C)nn(-c2ccccc2)c1N1CCC(C(=O)Nc2ccccc2C(F)(F)F)CC1	-1%

Six records picked at random from the list so far, as already listed:
Compound	VDR inhibitor
O=C(CN1c2ccccc2Sc2ccccc21)NNC(=S)Nc1ccc(Cl)cc1	2%
COc1ccc(CN(CC(=O)NC(C)C)C(=O)CCC(=O)Nc2nccs2)cc1	-9%
CCOc1ccc2[nH]cc(S(=O)(=O)c3ccc(C)cc3)c(=O)c2c1	-5%
O=C(NNC(=O)c1cccs1)c1ccco1	-2%
Cc1ccc(/C=C/C(=O)O)cc1S(=O)(=O)N1CCCc2ccccc21	-2%
COc1ccc(C(C(=O)NC2CCCCC2)N(C(=O)c2csnn2)C2CC2)cc1 (stereo not drawn)	0%

Other records follow.
mol	VDR inhibitor
CC(CN1CCOCC1)OC(=O)C1COc2ccccc2O1 (stereo not drawn)	8%
Cc1ccc(OCC(=O)Nc2ccc(CN3CCOCC3)cc2)cc1	0%
c1ccc(Nc2nc(-c3cccnc3)nc3ccccc23)cc1	u
COc1ccccc1CNC(=O)CCc1cn(C)c2ccccc12	-10%
COCCCNC(=O)C[C@H]1C[C@H](C(=O)N(C(C)C)C(C)C)[C@@]2(C)c3[nH]c4cc(-c5ccco5)ccc4c3CCN2C1=O	-3%
COc1cccc(-c2nc(SCc3cc(=O)c4cc(Cl)ccc4[nH]3)n[nH]2)c1	5%
Cc1cccc(C(=O)NCC(=O)OCC(=O)N2CCc3ccccc32)c1	-10%
CCOc1ccc(CN(C)CC(=O)NNC(=O)c2ccc(Cl)cc2)cc1OC	-24%
C=C(C)c1cccc(C(C)(C)NC(=O)N2CCN(CC)CC2)c1	-1%
CCOc1ccc(C(=O)NC(=S)Nc2ccc(N3CCOCC3)c(Cl)c2)cc1[N+](=O)[O-]	-6%
COc1cc(-c2noc(C)c2C(=O)NCCc2cccs2)cc(OC)c1OC	-13%
COc1ccccc1/C=C(\NC(=O)c1ccccc1)C(=O)NCc1ccco1	8%
O=S(=O)(c1ccc(Br)cc1)N1CCN(c2ccc3nnc(-c4ccccc4)n3n2)CC1	-16%
Cn1cc([N+](=O)[O-])c(C(=O)NC2CCCCCC2)n1	2%
O=C(c1cc(C2CC2)nc2ccccc12)N1N=C(C(F)F)CC1(O)C(F)F (stereo not drawn)	3%
CC(C1CC1)N(Cc1ccccc1)C(=S)Nc1ccccc1Cl (stereo not drawn)	-21%
COc1ccc(C(=O)C2CCCN(S(=O)(=O)N(C)C)C2)c(C)c1 (stereo not drawn)	-4%
Cc1ccc(C(=O)N2CCCN(c3nc4cc5c(cc4cc3C#N)OCO5)CC2)cc1	-3%
COc1ccccc1C(=O)NCC(=O)N/N=C/c1cn[nH]c1-c1ccccc1	15%
COc1cccc(-c2nc(S(=O)(=O)c3ccccc3)c(N3CCCCC3)o2)c1	-24%
COC(=O)C(CCSC)NC(=O)c1cc2c(n(-c3ccc(Cl)cc3)c1=O)CCCC2=O (stereo not drawn)	u
COc1ccc(N=N/C(=C\O)C(=O)c2cccs2)cc1	-8%
CN1Cc2c(C(=O)OC(C)(C)C)ncn2-c2ccsc2C1=O	-2%
CCc1ccccc1NS(=O)(=O)c1c(C(=O)N2CCCCCC2)c(C)n(C)c1C	-20%
Cc1cc2c(c(=O)o1)C(C1C=CCCC1)C(C#N)=C(N)O2 (stereo not drawn)	6%
CCc1ccccc1NS(=O)(=O)c1ccc2nc(-c3ccccc3)[nH]c2c1	u
O=C(NCCc1cccs1)c1ccc(Cn2c(SCc3ccccc3)nc3cccnc32)cc1	9%
OC(Cn1cccn1)c1ccccc1 (stereo not drawn)	2%
Cc1ccc(N2CC(C(=O)N3CCCCCC3)CC2=O)cc1 (stereo not drawn)	11%
C=CCOc1ccc(C(=O)Nc2ncn[nH]2)cc1	-9%

Compounds shown so far that have a COOH group, in the order listed:
mol	VDR inhibitor
N[C@H](Cc1cnc[nH]1)C(=O)O	-16%&7%
O=C(O)COc1ccc(NC(=O)c2ccco2)cc1	-19%
CC(C)CCCC(C)CCCC(C)CCCC(C)C(=O)O (stereo not drawn)	u
Cc1ccc(/C=C/C(=O)O)cc1S(=O)(=O)N1CCCc2ccccc21	-2%

Next section:
mol	VDR inhibitor
COC(=O)CNS(=O)(=O)c1ccc(C)cc1	5%
O=C(Nc1ccc(Cl)cc1)c1ccncc1	-1%
CSCC[C@H](NC(=O)C(C)(C)Oc1ccc(Cl)cc1)c1nc2ccccc2[nH]1	-2%
CC(=O)c1ccc(OCCn2c(SCC(=O)O)nc3ccccc32)cc1	1%
CN1CCN(c2nc3c(c(=O)n(C)c(=O)n3C)n2Cc2ccccc2F)CC1	-21%
Cc1ccc2sc(N(CCCN(C)C)C(=O)c3ccc(S(=O)(=O)N(C)C)cc3)nc2c1C	26%
CN(C)/C=C1/OC(=O)C(C#N)=C1c1ccc(Cl)cc1	14%
